Ran FRET – RanGTP/importin-beta interaction disruptors – biochemical, CFP-Ran/YFP-importin-beta FRET, RCC1, cell-free, primary screen (AID 434961); CFP-Ran/YFP-importin-beta FRET, cell-free; stronger effect = higher value; inhibition, %; actives 0.2% (n = 7,700);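 active = more than half of the replicate wells above 15% inhibition; inconclusive = exactly half above it; inactive = fewer than half above it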;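 note: 0% = DMSO wells and 100% inhibition = RanGDP control wells on each plate; stock of unstated strength diluted about 400-fold; mean of two wells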
Numbers without * were called inactive; ? = inconclusive. Not all compounds are listed; count on the stated rates, not on these rows.

entry	Ran FRET	Molecule
1	-3.8	CC(C)NC(=O)Nc1ccc2c(c1)C(=O)N([C@@H](C)CO)C[C@H](C)[C@H](CN(C)C(=O)C1CCCCC1)OCCCC[C@@H](C)O2
2	-0.8	C[C@H]1CN([C@@H](C)CO)C(=O)c2cccc(NS(=O)(=O)c3ccc(F)cc3)c2O[C@@H]1CN(C)C(=O)NC1CCCCC1
3	0.2	C[C@H]1CN([C@@H](C)CO)C(=O)CCCn2nncc2CO[C@H]1CN(C)C(=O)Nc1ccccc1F
4	2.4	C[C@@H]1CCCCO[C@H](CN(C)Cc2ccccc2)[C@H](C)CN([C@@H](C)CO)C(=O)c2cc(NC(=O)CCC(F)(F)F)ccc2O1
5	-0.1	C[C@@H]1CN([C@@H](C)CO)C(=O)c2cc(NC(=O)Nc3ccc4c(c3)OCO4)ccc2O[C@H]1CN(C)S(=O)(=O)c1cccs1
6	-5.5	C[C@@H]1CN([C@@H](C)CO)C(=O)c2cccc(NC(=O)c3nc4ccccc4s3)c2O[C@@H]1CN(C)C(=O)Nc1ccccc1
7	3.8	C[C@H]1CN([C@@H](C)CO)C(=O)Cc2cc(NS(C)(=O)=O)ccc2O[C@@H]1CN(C)S(=O)(=O)c1cccs1
8	5.1	Cc1noc(C)c1S(=O)(=O)N(C)C[C@H]1Oc2c(cccc2N(C)C)C(=O)N([C@@H](C)CO)C[C@H]1C
9	8.2	C[C@H](CO)N1C[C@H](C)[C@H](CN(C)Cc2ccncc2)Oc2ccc(NC(=O)NC3CCCCC3)cc2CC1=O
10	2.2	C[C@@H]1CN([C@@H](C)CO)C(=O)Cc2cc(NC(=O)Cc3cn(C)c4ccccc34)ccc2O[C@@H]1CN(C)C(=O)Nc1ccc(F)cc1
11	-3.6	Cc1noc(C)c1NC(=O)Nc1ccc2c(c1)CC(=O)N([C@H](C)CO)C[C@H](C)[C@@H](CN(C)Cc1ccncc1)O2
12	-1.9	Cc1noc(C)c1NC(=O)Nc1ccc2c(c1)C(=O)N([C@H](C)CO)C[C@H](C)[C@H](CN(C)C(=O)Nc1c(C)noc1C)OCCCC[C@H](C)O2
13	6.3	Cc1noc(C)c1S(=O)(=O)N(C)C[C@H]1Oc2ccc(NC(=O)Nc3ccccc3)cc2CC(=O)N([C@@H](C)CO)C[C@H]1C
14	3.2	C[C@H](CO)N1C[C@H](C)[C@H](CN(C)Cc2ccncc2)Oc2c(NC(=O)C3CCOCC3)cccc2C1=O
15	-1.2	C[C@H](CO)N1C[C@H](C)[C@H](CN(C)Cc2ccc(Cl)c(Cl)c2)OCc2cn(nn2)CCCC1=O
16	5.8	C[C@H](CO)N1C[C@H](C)[C@H](CN(C)C)Oc2c(NC(=O)NC3CCCCC3)cccc2C1=O
17	1.6	C[C@@H]1CN([C@H](C)CO)C(=O)c2cccc(NS(=O)(=O)c3cn(C)cn3)c2O[C@@H]1CN(C)C(=O)NC1CCCCC1
18	-0.6	COc1ccc(NC(=O)Nc2ccc3c(c2)CC(=O)N([C@H](C)CO)C[C@H](C)[C@H](CN(C)S(=O)(=O)c2ccc(C)cc2)O3)cc1
19	2.0	C[C@H](CO)N1C[C@H](C)[C@@H](CN(C)C(=O)Nc2ccc(C(F)(F)F)cc2)Oc2c(NC(=O)c3nc4ccccc4s3)cccc2C1=O
20	1.2	C[C@H]1CN([C@@H](C)CO)C(=O)c2cccc(NC(=O)NC3CCCCC3)c2O[C@@H]1CN(C)C(=O)Nc1ccc(C(F)(F)F)cc1
21	-0.1	C[C@H](CO)N1C[C@H](C)[C@@H](CN(C)C(=O)Nc2ccccc2)Oc2ccc(NC(=O)CCN3CCOCC3)cc2CC1=O
22	2.8	CNC[C@H]1Oc2ccc(NS(=O)(=O)c3ccccc3)cc2CC(=O)N([C@H](C)CO)C[C@H]1C
23	-0.7	C[C@H](CO)N1C[C@H](C)[C@H](CN(C)S(C)(=O)=O)Oc2ncccc2C1=O
24	-3.6	C[C@@H]1CN([C@H](C)CO)C(=O)Cc2cc(NC(=O)CCN3CCOCC3)ccc2O[C@@H]1CN(C)S(=O)(=O)c1ccccc1
25	5.3	CNC[C@@H]1Oc2ccc(NS(=O)(=O)c3ccccc3)cc2C(=O)N([C@H](C)CO)C[C@@H]1C
26	-3.5	Cc1noc(C)c1NC(=O)N(C)C[C@H]1OCCCC[C@@H](C)Oc2ccc(NS(=O)(=O)c3cccs3)cc2C(=O)N([C@@H](C)CO)C[C@@H]1C
27	-1.4	C[C@@H]1CN([C@@H](C)CO)C(=O)Cc2cc(NS(=O)(=O)c3ccccc3)ccc2O[C@H]1CN(C)C(=O)Nc1ccccc1
28	?	C[C@H]1CN([C@@H](C)CO)C(=O)c2cc(NS(=O)(=O)c3ccc(Cl)cc3)ccc2O[C@H]1CN(C)C(=O)NC1CCCCC1
29	0.4	Cc1noc(C)c1S(=O)(=O)Nc1ccc2c(c1)C(=O)N([C@@H](C)CO)C[C@H](C)[C@H](CN(C)C(=O)Nc1ccc(F)cc1)O2
30	1.0	CCCN(C)C[C@@H]1OCCCC[C@@H](C)Oc2ccc(NS(=O)(=O)c3ccc(OC)cc3)cc2C(=O)N([C@H](C)CO)C[C@@H]1C
31	3.9	COc1ccc(S(=O)(=O)Nc2ccc3c(c2)CC(=O)N([C@@H](C)CO)C[C@H](C)[C@H](CN(C)CC2CC2)O3)cc1
32	?	C[C@@H]1CN([C@H](C)CO)C(=O)c2cccc(NC(=O)Nc3ccc(F)cc3)c2O[C@H]1CN(C)C(=O)NC1CCCCC1
33	2.0	C[C@H]1CN([C@@H](C)CO)C(=O)c2cccc(NC(=O)Nc3cccc4ccccc34)c2O[C@@H]1CN(C)C(=O)NC1CCCCC1
34	-0.3	C[C@H](CO)N1C[C@H](C)[C@H](CN(C)S(=O)(=O)c2cn(C)cn2)OCc2cn(nn2)CCCC1=O
35	-5.5	C[C@H](CO)N1C[C@H](C)[C@@H](CN(C)S(=O)(=O)c2cn(C)cn2)Oc2c(NC(=O)NC3CCCCC3)cccc2C1=O
36	-1.4	CNC[C@H]1Oc2ccc(N(C)C)cc2CC(=O)N([C@@H](C)CO)C[C@H]1C

Part of the list above in order of number of heavy atoms, low to high:
entry	Ran FRET	Molecule
36	-1.4	CNC[C@H]1Oc2ccc(N(C)C)cc2CC(=O)N([C@@H](C)CO)C[C@H]1C
25	5.3	CNC[C@@H]1Oc2ccc(NS(=O)(=O)c3ccccc3)cc2C(=O)N([C@H](C)CO)C[C@@H]1C
16	5.8	C[C@H](CO)N1C[C@H](C)[C@H](CN(C)C)Oc2c(NC(=O)NC3CCCCC3)cccc2C1=O
14	3.2	C[C@H](CO)N1C[C@H](C)[C@H](CN(C)Cc2ccncc2)Oc2c(NC(=O)C3CCOCC3)cccc2C1=O
17	1.6	C[C@@H]1CN([C@H](C)CO)C(=O)c2cccc(NS(=O)(=O)c3cn(C)cn3)c2O[C@@H]1CN(C)C(=O)NC1CCCCC1
27	-1.4	C[C@@H]1CN([C@@H](C)CO)C(=O)Cc2cc(NS(=O)(=O)c3ccccc3)ccc2O[C@H]1CN(C)C(=O)Nc1ccccc1
13	6.3	Cc1noc(C)c1S(=O)(=O)N(C)C[C@H]1Oc2ccc(NC(=O)Nc3ccccc3)cc2CC(=O)N([C@@H](C)CO)C[C@H]1C
20	1.2	C[C@H]1CN([C@@H](C)CO)C(=O)c2cccc(NC(=O)NC3CCCCC3)c2O[C@@H]1CN(C)C(=O)Nc1ccc(C(F)(F)F)cc1
19	2.0	C[C@H](CO)N1C[C@H](C)[C@@H](CN(C)C(=O)Nc2ccc(C(F)(F)F)cc2)Oc2c(NC(=O)c3nc4ccccc4s3)cccc2C1=O
12	-1.9	Cc1noc(C)c1NC(=O)Nc1ccc2c(c1)C(=O)N([C@H](C)CO)C[C@H](C)[C@H](CN(C)C(=O)Nc1c(C)noc1C)OCCCC[C@H](C)O2

New compounds follow
entry	Ran FRET	Molecule
37	-3.4	C[C@@H]1CN([C@H](C)CO)C(=O)CCCn2nncc2CO[C@H]1CN(C)Cc1ccc(O)cc1
38	-1.9	CC(C)NC(=O)N(C)C[C@@H]1OCCCC[C@@H](C)Oc2ccc(NC(=O)CCCN(C)C)cc2C(=O)N([C@@H](C)CO)C[C@@H]1C
39	-0.6	Cc1noc(C)c1S(=O)(=O)N(C)C[C@H]1Oc2ccc(NS(=O)(=O)c3ccc(Cl)cc3)cc2C(=O)N([C@@H](C)CO)C[C@H]1C
40	-0.2	C[C@@H]1CN([C@@H](C)CO)C(=O)c2cc(NS(C)(=O)=O)ccc2O[C@@H]1CN(C)C
41	-6.7	C[C@@H]1CN([C@H](C)CO)C(=O)c2cc(NC(=O)Cc3ccccc3)ccc2O[C@H]1CN(C)C(=O)Nc1ccc(F)cc1
42	1.5	COc1ccc(S(=O)(=O)Nc2ccc3c(c2)CC(=O)N([C@H](C)CO)C[C@H](C)[C@H](CN(C)S(=O)(=O)c2ccc(OC)cc2)O3)cc1
43	-0.7	C[C@H](CO)N1C[C@H](C)[C@@H](CN(C)S(=O)(=O)c2ccc(Cl)cc2)Oc2c(NS(C)(=O)=O)cccc2C1=O
44	-1.8	C[C@@H]1CN([C@@H](C)CO)C(=O)c2cc(NS(C)(=O)=O)ccc2O[C@@H](C)CCCCO[C@H]1CN(C)C(=O)Nc1ccc(C(F)(F)F)cc1
45	-3.3	Cc1noc(C)c1NC(=O)Nc1ccc2c(c1)C(=O)N([C@H](C)CO)C[C@@H](C)[C@@H](CN(C)C(=O)C1CCCCC1)OCCCC[C@@H](C)O2
46	-3.3	C[C@@H]1CN([C@@H](C)CO)C(=O)Cc2cc(NC(=O)NC3CCCCC3)ccc2O[C@H]1CN(C)S(=O)(=O)c1ccc(Cl)cc1
47	-5.0	C[C@H]1CN([C@@H](C)CO)C(=O)c2cccc(NC(=O)C3CCOCC3)c2O[C@@H]1CN(C)S(=O)(=O)c1ccc(Cl)cc1
48	4.0	CC(C)NC(=O)N(C)C[C@H]1OCCCC[C@@H](C)Oc2ccc(NS(=O)(=O)c3ccccc3)cc2C(=O)N([C@@H](C)CO)C[C@@H]1C
49	-3.2	COc1ccc(CN(C)C[C@@H]2Oc3c(NC(=O)c4nc5ccccc5s4)cccc3C(=O)N([C@@H](C)CO)C[C@H]2C)cc1
50	-3.3	Cc1noc(C)c1S(=O)(=O)Nc1ccc2c(c1)CC(=O)N([C@@H](C)CO)C[C@@H](C)[C@@H](CN(C)C(=O)Nc1ccc(C(F)(F)F)cc1)O2
51	-0.9	C[C@@H]1CN([C@H](C)CO)C(=O)c2cccc(NC(=O)Nc3ccc(C(F)(F)F)cc3)c2O[C@@H]1CN(C)C(=O)NC1CCCCC1
52	?	CNC[C@H]1OCc2cn(nn2)CCCC(=O)N([C@@H](C)CO)C[C@H]1C
53	?	C[C@H]1CN([C@@H](C)CO)C(=O)c2cc(NS(=O)(=O)c3ccc(Cl)cc3)ccc2O[C@@H]1CN(C)C(=O)NC1CCCCC1
54	0.0	C[C@H](CO)N1C[C@H](C)[C@H](CN(C)S(=O)(=O)c2cn(C)cn2)Oc2c(NC(=O)c3cnccn3)cccc2C1=O
55	-2.2	CNC[C@H]1OCCCC[C@H](C)Oc2ccc(NS(=O)(=O)c3cccs3)cc2C(=O)N([C@H](C)CO)C[C@@H]1C
56	5.5	C[C@H]1CN([C@@H](C)CO)C(=O)c2cccc(NS(=O)(=O)c3cn(C)cn3)c2O[C@@H]1CN(C)C(=O)Nc1cccc2ccccc12
57	-1.2	Cc1noc(C)c1NC(=O)N(C)C[C@@H]1Oc2c(NC(=O)c3nc4ccccc4s3)cccc2C(=O)N([C@H](C)CO)C[C@@H]1C
58	?	C[C@H](CO)N1C[C@H](C)[C@@H](CN(C)S(=O)(=O)c2cn(C)cn2)OCCCC[C@H](C)Oc2ccc(NC(=O)c3ccccc3)cc2C1=O
59	1.9	C[C@H](CO)N1C[C@H](C)[C@@H](CN(C)Cc2ccc3c(c2)OCO3)Oc2ccc(NS(=O)(=O)c3ccccc3)cc2CC1=O
60	-0.1	C[C@@H]1CN([C@@H](C)CO)C(=O)c2cc(NS(=O)(=O)c3ccccc3)ccc2O[C@H]1CN(C)C(=O)Nc1ccc2c(c1)OCO2
61	?	COc1ccc(CN(C)C[C@H]2Oc3ccc(NC(=O)CCC(F)(F)F)cc3C(=O)N([C@@H](C)CO)C[C@H]2C)cc1
62	-4.9	C[C@@H]1CN([C@@H](C)CO)C(=O)c2cccc(NC(=O)c3cnccn3)c2O[C@@H]1CN(C)CC1CC1
63	1.2	C[C@H](CO)N1C[C@H](C)[C@@H](CN(C)C(=O)Nc2cccc3ccccc23)Oc2ccc(NC(=O)Nc3cccc4ccccc34)cc2C1=O
64	0.8	COc1ccccc1CN(C)C[C@H]1OCc2cnnn2CCCC(=O)N([C@@H](C)CO)C[C@H]1C
65	-2.3	CNC[C@H]1OCCCC[C@@H](C)Oc2ccc(NC(=O)C3CCCCC3)cc2C(=O)N([C@H](C)CO)C[C@H]1C
66	-1.7	CNC[C@H]1Oc2c(NC(=O)Nc3ccc(C(F)(F)F)cc3)cccc2C(=O)N([C@@H](C)CO)C[C@H]1C
67	-1.7	COc1ccc(S(=O)(=O)N(C)C[C@@H]2Oc3c(NS(=O)(=O)c4c(C)noc4C)cccc3C(=O)N([C@@H](C)CO)C[C@@H]2C)cc1
68	-3.0	C[C@H](CO)N1C[C@H](C)[C@H](CN(C)C(=O)Nc2cccc3ccccc23)Oc2c(NS(=O)(=O)c3cccs3)cccc2C1=O
69	4.7	C[C@H](CO)N1C[C@H](C)[C@H](CN(C)Cc2ccncc2)Oc2ccc(NC(=O)Nc3ccc(C(F)(F)F)cc3)cc2CC1=O
70	-1.7	C[C@H](CO)N1C[C@H](C)[C@H](CN(C)S(=O)(=O)c2ccc(C#N)cc2)Oc2ncc(C#CC(C)(C)O)cc2C1=O
71	?	COc1ccc(S(=O)(=O)N(C)C[C@H]2Oc3ccc(NC(=O)Nc4ccc(C(F)(F)F)cc4)cc3C(=O)N([C@H](C)CO)C[C@H]2C)cc1
72	?	COc1ccc(CN(C)C[C@H]2Oc3ccc(NS(=O)(=O)c4ccc(OC)cc4)cc3CC(=O)N([C@H](C)CO)C[C@H]2C)cc1
73	-0.1	Cc1noc(C)c1S(=O)(=O)Nc1cccc2c1O[C@H](CN(C)S(=O)(=O)c1cn(C)cn1)[C@H](C)CN([C@@H](C)CO)C2=O
74	-4.4	Cc1noc(C)c1NC(=O)Nc1ccc2c(c1)C(=O)N([C@H](C)CO)C[C@H](C)[C@@H](CN(C)C)OCCCC[C@H](C)O2
